PINK1 modulator: PINK1 expression modulation; PINK1 immunofluorescence, high-content cytometry, 24 h; Potency, µM (highest dose often 76.6 µM), inactives show top-dose activation (PINK1 increase), actives largely listed as activators; 410,000 compounds, 0.2% hits; AID 624263; active = well fitted activation curve with a large enough effect; inconclusive = small, poorly fitted or top-dose-only effect; inactive = flat fitted curve, though single readings scatter; cell line not stated here;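 note: potency is the fitted concentration of half-maximal effect; % of control where 0% means no effect; nearly all actives have a fitted effect of over 65% in size; a mitochondrial uncoupler was the plate control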
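Measures PINK1 amount and localization on or inside mitochondria by immunofluorescence. Stable cells get compounds at 5 concentrations for 24 hours before fixation and staining; CCCP controls included.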
D2 PAM: positive allosteric modulators of human D2 dopamine receptor. DiscoveRx D2 beta-arrestin cells, luminescence, 90 min; 100% = 57 uM dopamine signal. AID 624464. potentiation, % (no concentration beside the values). 360,000 compounds, 0.23% hits. P14416; active = potentiation of 50% or more; inconclusive = 30% to 50%; inactive = 30% or less;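 note: compound concentration not given in the record; tested on top of an EC20 dose of dopamine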
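D2 cells co-treated with compound plus 50 nM dopamine (EC20) for 90 min at 37 deg C to detect potentiation. Beta-arrestin recruitment was read as enzyme-fragment luminescence after 1 h at ambient temperature. Full response was set by 57 uM dopamine.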
Sfp inh: inhibitors of Bacillus subtilis Sfp phosphopantetheinyl transferase; Q9F4F7; Biochemical Sfp PPTase activity, qHTS; Potency, µM, without a hit: max response, negative = inhibition, most hits filed as inhibitors; 310,000 compounds, 3.5% hits; AID 1490; active = well fitted inhibition curve with a large enough effect; inconclusive = small, poorly fitted or top-dose-only effect, or another doubt; inactive = no such curve, though single readings can be large or run the other way;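 note: the enzyme is Sfp with the accession as filed and its product quenches rhodamine fluorescence; potency is the fitted concentration of half-maximal effect; 0% = enzyme reaction without inhibitor and -100% = no enzyme wells; top concentration of the series not given in the record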
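Compounds were incubated with enzyme (final 15 nM) for 15 min at room temperature before substrate addition started the reaction. Fluorescence at 525 nm excitation, 598 nm emission was recorded immediately and after 30 minutes.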
CtBP-E1A blk: CtBP/E1A binding inhibition. AID 651724. activity change, % (test concentration not listed). 340,000 compounds, 0.49% hits. AlphaScreen GST-E1A/His-CtBP binding, 1536-well; hits give low values; control for the full effect not named in the record; in the data active means activity change below about -65%; inconclusive means about -30% to -65%; inactive means above about -30%; note: % is set by controls: 0 for no effect and ±100 for the full control effect
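Protein mix (5X: 125 nM each GST-E1A, His-CtBP) was incubated with pinned compound 2 h at 37 deg C in dark, in 50 mM Tris pH 8.0 buffer with 300 mM NaCl. Glutathione donor and nickel acceptor beads followed; AlphaScreen signal read after 1 h.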
Six1-Eya2 blk: blocks human Six1 binding to Eya2; Q15475+O00167; 360,000 compounds, 0.56% hits; AlphaScreen GST-Six1/His-Eya2 binding, biochemical; hits give low values; control for the full effect not named in the record; activity change, % (test concentration not listed); in the data active = activity change below about -65%; inconclusive = about -30% to -65%; inactive = above about -30%; note: % is set by controls: 0 for no effect and ±100 for the full control effect
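AlphaScreen with GST-Six1 and His-Eya2 (5X mix: 250 nM and 500 nM), glutathione donor and nickel acceptor beads; buffer 50 mM Tris pH 8.0, 300 mM NaCl, 1 mM TCEP; 1 h at 37 C in the dark.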
D2 agonist: agonists of human D2 dopamine receptor (beta-arrestin); 360,000 compounds, 0.084% hits; activation, % (test concentration not listed); P14416; DiscoveRx PathHunter D2 beta-arrestin, luminescence, 90 min; 100% = 57 uM dopamine signal; in the data active = activation above about 40%; inconclusive = about 15% to 40%; inactive = below about 15%; note: compound concentration not given in the record; the text of the record calls up to 30% inactive
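DiscoveRx PathHunter D2 beta-arrestin cells (2,100/well) attached overnight, then compound-stimulated 90 min at 37 C in HBSS/10 mM HEPES/0.1% Tween-20 buffer; beta-galactosidase complementation read by luminescence after 1 h at ambient temperature. Dopamine 57 uM final (EC100) as control.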
TRPV1 potentiator: enhances activation of the human vanilloid receptor TRPV1. Q8NER1. TRPV1-expressing cells, Fluo-8 calcium influx, capsaicin EC20 potentiation; host cell line not named in the record; control for the full effect not named in the record. potentiation, % at 8.33 µM. 320,000 compounds, 0.02% hits. AID 540277; active means potentiation above 80%; inconclusive means 30% to 80%; inactive means below 30%; note: 0% is about no effect
Target sequence (Q8NER1 whole entry, looked up): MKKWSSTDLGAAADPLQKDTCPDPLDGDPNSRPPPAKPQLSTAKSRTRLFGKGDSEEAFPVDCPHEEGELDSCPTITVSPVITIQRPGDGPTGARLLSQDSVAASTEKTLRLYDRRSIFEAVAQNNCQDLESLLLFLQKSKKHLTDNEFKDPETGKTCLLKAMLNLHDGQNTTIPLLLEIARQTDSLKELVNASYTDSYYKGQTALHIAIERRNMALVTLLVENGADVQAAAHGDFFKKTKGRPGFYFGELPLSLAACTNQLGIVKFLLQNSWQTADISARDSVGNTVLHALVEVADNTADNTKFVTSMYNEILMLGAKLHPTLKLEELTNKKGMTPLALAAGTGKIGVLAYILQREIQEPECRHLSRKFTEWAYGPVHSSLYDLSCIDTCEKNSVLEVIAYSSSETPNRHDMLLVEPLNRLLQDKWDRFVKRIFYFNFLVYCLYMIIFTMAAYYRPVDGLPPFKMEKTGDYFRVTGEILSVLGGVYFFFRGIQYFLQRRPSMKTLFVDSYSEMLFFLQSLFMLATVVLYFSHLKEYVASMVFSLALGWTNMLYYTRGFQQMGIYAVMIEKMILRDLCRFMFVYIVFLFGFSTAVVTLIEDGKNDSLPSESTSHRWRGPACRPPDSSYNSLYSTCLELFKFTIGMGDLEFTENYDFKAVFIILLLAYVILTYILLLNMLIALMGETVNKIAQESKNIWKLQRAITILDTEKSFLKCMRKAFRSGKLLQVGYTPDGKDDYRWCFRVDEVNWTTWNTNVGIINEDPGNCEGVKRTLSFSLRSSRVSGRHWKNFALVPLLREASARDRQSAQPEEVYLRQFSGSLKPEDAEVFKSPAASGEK
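TRPV1-expressing cells were cultured overnight at 35.5C and loaded with Fluo-8 calcium dye for 40 to 90 min at room temperature. After a 10 s baseline, compound was added and calcium influx was read kinetically for 3 min (ex 480/em 520 nm).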
Active calls of the source: *; ? = inconclusive; nt = not tested or not shown; & = joins results of further samples; [ ] = another dose, or the depositor's remark.

Second line of a record: PINK1 modulator | D2 PAM | Sfp inh | CtBP-E1A blk | Six1-Eya2 blk | D2 agonist | TRPV1 potentiator
#1 CCOC(=O)c1c(NC(=S)Nc2cccc(C)c2)sc2c1CC(C)(C)SC2
→ 4.2% | -40 | ? | -10 | -25 | -3.3 | -2
#2 O=C(CCN=C1NS(=O)(=O)c2ccccc21)N1CCc2ccccc2C1
→ 0.5% | -13 | 27% | -1 | 5 | -2.1 | -6
#3 Cc1cc(NC(=O)/C=C\C(=O)O)c([N+](=O)[O-])cc1C
→ -0.8% | -8 | 24% | -2 | -14 | -15 | -2
#4 CCOc1ccc(N/C(N)=N/c2nc(C)cc(C)n2)cc1
→ 1.8% | 30 | 10% | nt | -2 | 1.8 | 7
#5 CCCN1CCc2c(sc(NC(=O)C3CCN(S(=O)(=O)c4cccs4)CC3)c2C(N)=O)C1
→ 2.1% | -4 | nt | -3 | 2 | -4.0 | -12
#6 Cc1ccc(-c2ccc(=O)n(CC(=O)NCCN3CCCCC3C)n2)cc1 (stereo unspecified)
→ nt | -15 | 18% | 3 | -1 | -3.6 | 6
#7 O=C(NCc1cccnc1)C1CCN(S(=O)(=O)c2cc([N+](=O)[O-])ccc2Cl)CC1
→ -1.5% | 22 | nt | -20 | 3 | 13 | nt
#8 COc1cc(OC)c(NC(=O)c2cncn2-c2ccc(F)cc2)cc1Cl
→ 2.7% | -1 | 1% | 0 | -3 | 2.0 | 1
#9 C#CCNC(=O)C1=C[C@H](c2ccc(Br)cc2)C[C@H](OCCCCO)O1
→ 0.0% | -7 | -12% | 2 | 2 | -3.6 | 22
#10 O=C(OCCCOC(=O)c1ccc(Br)o1)c1ccc(Br)o1
→ -2.8% | 7 | nt | 1 | 0 | -6.5 | -5
#11 Cc1cccc(C(=O)N=c2sccn2C)c1[N+](=O)[O-]
→ 0.5% | 4 | 20% | 1 | 0 | 0.4 | 5
#12 NC(=O)C1CCN(C(=O)c2ccc(Oc3cc(Cl)cc(Cl)c3)o2)CC1
→ -0.3% | 2 | ? | nt | -4 | 0.5 | -23
#13 COc1ccccc1OCCNC(=O)Cc1ccc(Cl)c(Cl)c1
→ 2.7% | -7 | 6% | -10 | 5 | 9.6 | -7
#14 Cc1cnc(C(=O)OCC(=O)N=c2sccn2Cc2ccccc2Cl)cn1
→ -0.3% | -4 | 3% | 9 | 0 | -22 | 16
#15 Cc1ccc([C@H]2N[C@]3(CCCN(Cc4ccc(C(F)(F)F)cc4)C3=O)[C@H]3C(=O)N(C)C(=O)[C@@H]23)cc1
→ 0.4% | -8 | nt | 5 | -9 | -9.6 | nt
#16 CN1C(=O)/C(=C/c2ccc(O)c([N+](=O)[O-])c2)N(C)C1=S
→ 1.7% | -8 | ? | nt | 10 | -7.2 | -1
#17 CC(=O)Oc1ccc(C(=O)[C@H]2[C@H]3C(=O)N(c4ccccc4)C(=O)[C@H]3[C@@H]3C=CC=NN32)cc1
→ ? | 17 | ? | 0 | -18 | 3.3 | -10
#18 CS(=O)(=O)N(Cc1ccc(Cl)cc1)c1ccc(C(=O)N2CCN(c3ccccc3)CC2)cc1
→ -1.1% | -10 | -15% | -3 | -6 | 0.6 | 7
#19 Cc1cccc(N(CC(=O)N2CCCC2)S(C)(=O)=O)c1C
→ 2.4% | 3 | nt | 5 | 7 | -1.0 | nt
#20 Cc1ccccc1C(=O)N1CCC(C(=O)Nc2nccs2)CC1
→ 0.3% | -6 | -2% | 2 | 0 | 1.2 | 6
#21 Cc1ccc(CN2CCN(C(=O)/C=C/[C@H]3O[C@@H](n4cc(C)c(=O)[nH]c4=O)C[C@@H]3O)CC2)cc1
→ 1.3% | -1 | nt | -7 | 0 | -2.7 | nt
#22 C=CCn1c(SCC(=O)c2ccc(O)c(O)c2)nnc1-c1cccnc1
→ 0.1% | 6 | ? | 1 | ? | 0.2 | -4
#23 CCCCCCC(C)NC(=S)Nc1cc(S(=O)(=O)N(C)C)ccc1C (stereo unspecified)
→ 9.4% | -41 | 9% | -5 | 0 | -1.4 | -18
#24 Cc1cc2c(cc1S(=O)(=O)NCc1ccccc1)n(C)c(=O)c(=O)n2C
→ 0.4% | -2 | 13% | -9 | -21 | -1.2 | -9
#25 C[C@@]12C(=O)Nc3cc(Cl)ccc3C(=O)N1[C@H]1c3ccccc3OC[C@@H]1[C@@H]2c1ccccc1
→ 0.1% | -24 | nt | -1 | -10 | -0.5 | -1
#26 CCCOc1ccc(NC(=O)C2CC(=O)N(C)C(=Nc3cccc(OC)c3)S2)cc1 (stereo unspecified)
→ -0.5% | 0 | -9% | -30 | 7 | -1.5 | 5
#27 COc1ccc(C(=O)NC2CC2)cc1OC1CCN(Cc2ccccc2)CC1
→ -0.8% | -21 | -2% | -5 | 14 | -4.3 | -8
#28 O=c1[nH]c(CCl)nc2cc(-c3ccc(Cl)cc3)sc12
→ 1.7% | -8 | -12% | -4 | -1 | -4.0 | 5
#29 CCOC(=O)c1cccc(NC(=O)CN(C)S(=O)(=O)c2cnc[nH]2)c1
→ -1.8% | -12 | 11% | 13 | 3 | -3.6 | 12
#30 COc1ccc(-c2c(NC(=O)c3ccco3)n(-c3ccc(C)cc3)nc(C)c2=O)cc1
→ 0.4% | -7 | 8% | -9 | -4 | -3.5 | 23
#31 Nn1c(SCc2ccc(Br)cc2)nnc1-c1ccccn1
→ -0.8% | -5 | 2% | -2 | -6 | -1.0 | -20
#32 CN(C)C(=O)COc1ccc2c(-c3ccccc3)cc(=O)oc2c1
→ 0.9% | -11 | 11% | nt | 1 | -3.3 | 0
#33 COc1ccc(C(C(=O)NC2CCCCC2)N(C(=O)c2ccccn2)c2cccnc2)c(OC)c1 (stereo unspecified)
→ -0.4% | -9 | 3% | 7 | 5 | -0.3 | 3
#34 O=C(NCC(=O)N(c1cccc(F)c1)C(C(=O)NC1CCCC1)c1cccnc1)c1cccs1 (stereo unspecified)
→ -0.5% | -1 | 7% | nt | 1 | -1.2 | -6
#35 CCOc1ccc(C(C)NC(=O)c2cc(=O)[nH]c3ccccc23)cc1OCC (stereo unspecified)
→ -0.8% | -1 | 11% | 0 | -5 | -1.4 | 3
#36 CC(C)c1nc2sc3c(c2c(=O)[nH]1)CC(C)(C)OC3
→ -0.7% | -1 | 3% | 18 | 4 | 0.6 | 14
#37 NC(=O)CCCn1c(C(=O)c2cc(Cl)c(N)c(Cl)c2)c2ccc([N+](=O)[O-])cc2[n+]1[O-]
→ -0.1% | 6 | nt | -10 | -20 | 2.9 | 4
#38 CN1CCN(C(=O)c2cc3c(c(-c4cccc(-c5cc6ccccc6o5)c4)n2)[C@@H](CCO)N(S(=O)C(C)(C)C)C3)CC1 (stereo partly specified)
→ 1.3% | -9 | nt | -2 | -11 | -3.6 | nt
#39 COc1cccc(/C=N/NC(=O)CC2C(=O)NN=C2C)c1OC (stereo unspecified)
→ -0.6% | -38 | 23% | -2 | -8 | 2.4 | 9
#40 Cc1ccc(C(=O)Nc2sc3c(c2C(=O)O)CCCC3)o1
→ 7.2% | 3 | 14% | -5 | 4 | -2.0 | 6
#41 Cc1cc(C)[n+](Cc2ccccc2)cc1C(N)=O
→ -0.9% | 3 | nt | 12 | -14 | -2.1 | nt
#42 Cc1ccc(NC(=O)c2cc(C)nn2-c2ccccc2)cc1
→ -1.5%&-0.3% | 2 | -4% | -4 | 3 | -5.6 | -16
#43 Cn1c(-c2ccc(F)cc2)cnc1SCC(=O)Nc1ccccc1
→ 4.4% | -16 | -7% | 0 | 6 | -0.1 | -6
#44 COC(=O)c1ccc(CSc2nnc(NC(=O)C3CC(=O)N(Cc4ccc(C)cc4)C3)s2)cc1 (stereo unspecified)
→ -1.9% | 0 | -2% | -9 | -3 | 0.2 | 11
#45 COc1ccc(C(CC(=O)O)NC(=O)OC(C)(C)C)cc1 (stereo unspecified)
→ -0.9% | 5 | 5% | 4 | 3 | -3.6 | 0
#46 Cc1[nH]n(-c2ccccc2)c(=O)c1N=Nc1ccccc1O
→ -0.4% | -20 | 0% | -81* | -87* | -5.5 | -12
#47 Cc1onc(-c2ccccc2Cl)c1C(=O)Nc1ccccc1C(=O)NC(C)C
→ nt | 4 | 5% | -10 | -9 | -1.0 | -17
#48 Cc1cccc(NS(=O)(=O)c2ccc(-c3cnc(C4CC4)o3)cc2)c1
→ 0.0% | -11 | -7% | nt | -7 | -0.1 | 3
#49 COC(=O)c1ccc(N2C(=O)CC(N3CCN(c4ccccc4)CC3)C2=O)cc1 (stereo unspecified)
→ 0.1% | -23 | nt | -2 | -11 | -2.5 | nt
#50 Cc1cc(C)n2nc(SCCCC(=O)c3ccccc3)nc2n1
→ 3.1% | 3 | -5% | 0 | 13 | -4.9 | 9
#51 COc1cccc(/C=C/c2onc(C)c2S(=O)(=O)N2CCC(C(=O)NC3CCCCCC3)CC2)c1
→ 6.2% | -3 | 13% | -6 | 0 | -2.9 | -6
#52 O=C1NC(=O)C2(C=C(c3ccccc3)C(O)(c3ccccc3)C2)N1 (stereo unspecified)
→ -3.1% | -11 | nt | 0 | 22 | -5.3 | nt
#53 Cc1ccc(S(=O)(=O)Cc2ccc([N+](=O)[O-])cc2)cc1
→ 1.3% | 1 | 13% | 5 | -3 | 4.6 | -5
#54 COc1cccc(CN2CCN(C(=O)CCc3nnc(C4CCCCC4)o3)CC2=O)c1
→ -1.7% | 5 | 8% | 3 | -1 | 0.8 | -8
#55 CN(C)c1cc(-c2ccc(F)cc2)oc(=O)c1Cl
→ 0.3% | -5 | 28% | -7 | -19 | -2.8 | -4
#56 Cc1ccn2c(-c3csc(Nc4ccc(C(=O)O)cc4)n3)c(C)nc2c1
→ 11% | -18 | nt | -16 | 0 | -4.4 | nt
#57 CCOc1cc(C2C3=C(CCCC3=O)Nc3nc(C(=O)OC)nn32)ccc1OC (stereo unspecified)
→ 0.0%[38.3 µM] | -2 | 12% | -2 | 1 | 0.3 | -9
#58 COc1ccc(C(=O)N2CCc3ccccc3C2)cc1S(=O)(=O)N1CCCC1
→ 0.1% | -11 | nt | -12 | 5 | 1.3 | nt
#59 Cc1nn(C2CCS(=O)(=O)C2)c(Cl)c1/C=C/C(=O)OCC(=O)c1c[nH]c2ccccc12 (stereo unspecified)
→ 1.9% | -4 | 14% | nt | 0 | -4.7 | 2

Bioassay records from PubChem.
